# Source: PubChem BioAssay
# HNF4A DNA FP: change in binding of human HNF4 alpha to DNA | P41235 | HNF4a-FITC DNA binding, fluorescence polarization, 1 h | activity change, % at 10 µM | 0.3% of 360,000 active | AID 1224865; in the data active means activity change above about 30%, passing the limit was not always enough;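 further: controls were the assay level and a saturating level of protein; the project sought stronger binding though the title names inhibitors; some compounds called inactive have numbers as strong as hits; positive values seem to mean higher polarization but the record does not say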
# Target sequence (P41235 whole entry, looked up): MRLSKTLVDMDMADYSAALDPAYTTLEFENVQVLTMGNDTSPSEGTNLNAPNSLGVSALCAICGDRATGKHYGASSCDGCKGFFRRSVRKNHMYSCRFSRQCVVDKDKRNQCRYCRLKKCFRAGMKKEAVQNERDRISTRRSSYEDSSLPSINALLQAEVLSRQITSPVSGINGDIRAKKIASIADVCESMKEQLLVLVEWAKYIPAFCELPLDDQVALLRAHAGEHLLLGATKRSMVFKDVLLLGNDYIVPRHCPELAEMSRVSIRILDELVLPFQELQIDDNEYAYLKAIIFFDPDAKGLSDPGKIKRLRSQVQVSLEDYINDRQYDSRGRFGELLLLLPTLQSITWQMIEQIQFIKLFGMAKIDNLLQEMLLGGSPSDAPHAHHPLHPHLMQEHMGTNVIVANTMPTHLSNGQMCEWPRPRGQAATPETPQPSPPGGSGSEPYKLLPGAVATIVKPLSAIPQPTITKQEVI
# Beta2AR agonist: activates human beta-2 adrenergic receptor causing internalization | Am2.2-beta2AR cells, FAP receptor internalization, flow cytometry; reference of the scale not given here | response, % (no concentration beside the values) | 0.43% of 340,000 active;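 active means response above a set limit, near 3 SD of response in nonfluorescent compounds, cut at about 42% in these data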;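 further: stock transfer was 100 nL into about 11 µL; a reference agonist was the positive control; negative values mostly stem from fluorescent compounds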
# Target sequence (P07550 whole entry, looked up): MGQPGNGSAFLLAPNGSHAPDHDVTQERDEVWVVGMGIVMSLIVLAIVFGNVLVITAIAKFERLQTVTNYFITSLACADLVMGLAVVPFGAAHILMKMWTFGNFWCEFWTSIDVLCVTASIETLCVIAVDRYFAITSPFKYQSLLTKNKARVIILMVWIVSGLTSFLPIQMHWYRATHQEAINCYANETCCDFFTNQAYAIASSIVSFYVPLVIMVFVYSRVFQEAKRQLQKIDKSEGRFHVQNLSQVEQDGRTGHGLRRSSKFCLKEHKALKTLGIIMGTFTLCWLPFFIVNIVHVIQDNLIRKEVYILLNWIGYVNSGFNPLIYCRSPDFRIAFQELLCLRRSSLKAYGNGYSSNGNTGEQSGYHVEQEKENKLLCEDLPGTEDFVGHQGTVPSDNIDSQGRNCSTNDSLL
# Vif TR-FRET: inhibitors of Vif binding to APOBEC3G peptide, primary screen, biochemical, TR-FRET, GST-Vif 1-94, biotin-A3G peptide, dose response retest (AID 1117319) | TR-FRET GST-Vif / biotin-A3G peptide binding; higher % means a stronger effect; test concentration not given here; strong numbers were not always called active | inhibition, %; hits with a dose series show IC50 in µM | 0.57% of 260,000 active;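 active means above the screen mean plus three standard deviations and confirmed in dose response; inconclusive means results disagree or hit not tested in dose response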;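 further: Vif residues 1-94 fused to GST binding biotinylated APOBEC3G peptide 110-148; 0% = full assay without inhibitor and 100% = GST in place of GST-Vif; retest series ran down from 100 µM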
# LANA-H2B inh: blocks KSHV LANA binding to histone H2A/H2B; Q9QR71; cell-free LANA-H2A/H2B peptide, fluorescence polarization; inhibition, % (no concentration beside the values); 0.6% of 320,000 active; AID 2629; in the data active means inhibition mostly above about 10%, no sharp cut-off; inactive means mostly below about 6.7%;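 further: stock transfer was 7.5 nL into about 10 µL; 0% = median of vehicle wells and 100% = median of positive control wells; one replicate is shown; the record names a cut of 25% in any replicate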
# ALR inh: inhibitors of human sulfhydryl oxidase ALR | inhibition, % (test concentration not listed) | 3.8% of 290,000 active | P55789 | purified ALR, DTT oxidation, H2O2 HRP-luminol luminescence;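 active means mean and each replicate at 75% or more; inconclusive means only one of the two met; inactive means neither met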;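 further: stock transfer was 7.5 nL into about 7.5 µL; 0% = neutral wells and 100% = wells with inactivated enzyme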
# Target sequence (P55789 whole entry, looked up): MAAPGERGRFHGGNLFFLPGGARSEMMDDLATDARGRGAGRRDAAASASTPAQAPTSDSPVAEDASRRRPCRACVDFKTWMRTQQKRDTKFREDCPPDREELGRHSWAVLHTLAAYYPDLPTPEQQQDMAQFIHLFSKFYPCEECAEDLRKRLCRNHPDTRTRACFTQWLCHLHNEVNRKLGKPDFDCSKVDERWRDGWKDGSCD
# Calb FLC: affects C. albicans growth with fluconazole; 0.57% of 300,000 active; AID 1979; growth inhibition, % (concentration not given with the values); C. albicans CaCi-2 (fluconazole-resistant clinical isolate) + fluconazole, Alamar Blue growth, 48 h;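 active means most replicates above 75%; inconclusive means exactly half above 75%; inactive means most below 75%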;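 further: all wells also contain fluconazole at 8 µg/ml as a sub-toxic cotreatment; 0% = median of DMSO wells and 100% = median of geldanamycin control wells; wells of about 8 µL received 7.5 nL stock; the first replicate is given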
# RanGTP-Impb inh: disruptors of Ran-importin-beta complex formation – biochemical, FRET, CFP-Ran, YFP-importin-beta, homogeneous, primary screen. cell-free CFP-Ran/YFP-importin-beta FRET ratio. inhibition, % (test concentration not listed). 1.1% of 300,000 active;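 active means most replicates above 15%; inconclusive means exactly half above 15%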;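 further: 0% = DMSO wells and 100% = Ran loaded with GDP instead of GTP; wells of about 40 µL received 100 nL stock; the first replicate is given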
# * marks the source's active call; other numbers are inactive results; ? = inconclusive; . = no result given.
SMILES,HNF4A DNA FP,Beta2AR agonist,Vif TR-FRET,LANA-H2B inh,ALR inh,Calb FLC,RanGTP-Impb inh
CN(CC(=O)N1CCCCCC1)S(=O)(=O)c1ccc(Br)cc1,-2.5,0,-8%,-1.9,-20,-29,?
COc1ccc(C)cc1NC(=O)COC(=O)c1ccc2ccccc2n1,3.0,3,-4%,2.3,-4,.,.
COc1ccc(CC(=O)OCC(=O)Nc2ncc(Cl)c(C)c2Cl)cc1,-2.7,-6,17%,.,.,.,.
CC1(OC(=O)C2CCCC2)C(=O)C=C2C=C(c3ccsc3)N(CC3CC3)C=C2C1=O (centres undefined),-5.2,-6,.,-6.6,.,29,-3.6
O=C(O)c1ccc(N2C(=O)CC(Cc3ccccc3)C2=O)cc1 (centres undefined),9.5,-3,8%,0.8,-20,20,1.6
Cc1cc(C)c(C(=O)COC(=O)C2CC3CCCC(C2)C3=O)c(C)c1 (centres undefined),0.9,-5,8%,2.1,-3,2,0.5
COc1ccc(-c2nc(CS(=O)CC(=O)NCc3ccc(Cl)cc3)c(C)o2)cc1 (centres undefined),-3.3,7,17%,7.9,99*,-7,-1.0
Cc1ccc(NCC(=O)Nc2c(C)n(C)n(-c3ccccc3)c2=O)cc1S(=O)(=O)N(C)C,0.6,-10,5%,-3.6,39,0,-0.8
CCOC(=O)C1CCCN(C2CC(=O)N(c3cccc(C(F)(F)F)c3)C2=O)C1 (centres undefined),0.1,10,5%,2.1,2,0,2.9
Cc1onc(-c2ccccc2Cl)c1C(=O)Nc1ccc(Cl)cn1,2.7,-17,.,1.3,-5,-4,4.1
CC(C)C1CC(C(F)(F)F)n2nc(C(=O)O)cc2N1 (centres undefined),5.2,-1,7%,-0.9,2,15,?
C[C@H](CO)N1C[C@H](C)[C@@H](CN(C)C(=O)Nc2ccc3c(c2)OCO3)Oc2c(NS(=O)(=O)c3ccc(F)cc3)cccc2C1=O,1.7,-9,.,11,-14,.,.
CC(C)[C@H](NC(=O)c1ccc(Cl)c([N+](=O)[O-])c1)C(=O)NCc1ccc(F)cc1,3.9,4,.,-0.7,-32,-3,0.6
Cc1ccc(CNC(=O)CSc2c3c(nc4cc(Cl)ccc24)CCCC3)o1,4.4,6,?,-1.1,.,29,1.1
CC1(C)CC(=O)C=C(C(=O)NC2CCCc3c2cnn3-c2cc(F)cc(F)c2)O1 (centres undefined),-2.3,10,.,-0.2,0,0,1.4
Cc1ccc(S(=O)(=O)Nc2nc3ccccc3nc2NCc2ccco2)cc1C,8.4,-8,?,3.4,?,9,?
Fc1ccccc1N1CCN(Cc2cnc(Cl)s2)CC1,2.1,3,23%,1.5,-1,-16,-1.8
CC(C)CCCC(C)NC(=O)c1cc(S(=O)(=O)N2CCCCC2)ccc1N1CCOCC1 (centres undefined),0.9,2,1%,.,.,.,.
CN(C)CCN(Cc1ccccc1)c1ccnc(N(C)C)c1C#N,0.3,17,-1%,-0.4,7,-11,-1.3
CSc1ccccc1COC(=O)Nc1ccccc1C,-2.5,-3,3%,1.0,0,-32,-0.2
Cc1cc(C(F)(F)F)nn1-c1nc(-c2ccco2)cc(C(F)(F)F)n1,0.1,-7,-2%,.,.,-11,-3.4
Cc1ccc(CNC(=O)COC(=O)c2cc3c(s2)CCC(C)C3)cc1 (centres undefined),-0.3,-1,2%,-2.9,2,-1,-5.2
O=c1c2oc3ccccc3c2ncn1Cc1cccc(Cl)c1,0.4,4,-9%,-1.5,-10,-4,-1.2
COc1cc(/C=N/Nc2ccc(F)cc2F)cc(OC)c1O,2.7,2,32%,-4.3,99*,-24,-0.8
CC12CCC(C(=O)Nc3ccccc3)(C/C1=N\O)C2(C)C (centres undefined),3.9,3,0%,-4.5,-3,-6,4.7
O=c1c2c(-c3cccs3)csc2ncn1-n1cccc1,2.3,-6,2%,2.3,-2,7,4.8
CN(C)S(=O)(=O)c1ccc(Cl)c(NC(=O)COC(=O)CCC(=O)c2cccs2)c1,4.3,-2,.,-1.2,.,-3,1.1
COCC(C)n1c(C)cc(C(=O)COC(=O)c2oc3ccccc3c2C)c1C (centres undefined),5.0,2,-2%,-4.5,-5,3,-1.9
CC1CCCCN1C(=S)NC(=O)c1ccco1 (centres undefined),-0.4,1,0%,5.3,28,.,.
COc1cccc(-c2ccc(NC(=O)C3CCCN(CCCn4cccn4)C3)cc2)c1 (centres undefined),3.3,10,.,3.9,-21,-10,-1.6
CC(C)(C)c1nc(NC(=O)Nc2ccccc2)sc1Br,1.0,-1,.,0.2,0,4,-2.3
O=c1[nH]c2c(c(=O)n1Cc1ccccc1)CCC2,1.2,-17,-2%,2.6,.,-7,2.8
O=C(COC(=O)c1ccc(O)cc1)Nc1cccc(S(=O)(=O)NC2=NCCC2)c1,-0.4,-2,-4%,-1.5,-2,.,.
O=C(Cn1cc(C(F)(F)F)ccc1=O)Nc1ccc2c(c1)OCCO2,-0.5,3,2%,-2.0,1,.,.
CCCc1nnc(NC(=O)CCC(=O)NC2CC2)s1,3.0,3,.,-1.3,0,-7,-4.6
CCn1c(=O)n(CC)c2cc(S(=O)(=O)N3CCCCC3)c(C)cc21,-1.6,-5,27%,-3.3,-8,9,.
CC(C)OCCCNC1=C(Cl)C(=O)c2ccccc2C1=O,4.2,9,9%,5.5,.,18,3.8
Cc1nn(-c2ccccc2)c(Cl)c1C(=O)NCCCCNC(=O)c1c(C)nn(-c2ccccc2)c1Cl,3.0,5,?,-0.2,.,-2,-0.7
Cc1ccc(NC(=S)NC2CCSc3ccccc32)cc1C (centres undefined),4.4,3,6%,-0.4,4,-3,-2.9
COC(=O)c1sc(SC)c(S(=O)(=O)C(C)C)c1N/N=C(\C#N)S(=O)(=O)c1ccccn1,1.2,3,1%,9.1,-1,-3,-4.6
COc1cccc(CNC(=O)c2cc(S(=O)(=O)N3CCCCC3)c[nH]2)c1,2.9,-4,.,2.1,-5,-6,2.0
Cc1cc(O)cc(=O)n1Cc1ccccc1,1.4,-2,.,0.8,1,-4,-2.0
CC(C(=O)c1ccc(Br)cc1)[n+]1cccc(NC(=O)c2ccccc2)c1 (centres undefined),2.5,7,.,3.1,-2,-22,1.5
COC(=O)[C@H](Cc1ccccc1)NC(=O)c1cc(COc2c(F)cccc2F)on1,-1.3,2,.,-2.0,0,8,1.1
COc1ccc(NC(=O)CCCc2nc3ccccc3c(=O)[nH]2)cc1Cl,-1.6,-6,-2%,0.4,-9,.,.
CC(=O)Nc1ccc(S(=O)(=O)N2CCC(NC(=O)c3ccco3)CC2)cc1,-3.3,-7,12%,-2.3,.,-9,?
CN1CCN(S(=O)(=O)c2cccc(C(=O)N(C)CC(=O)Nc3ccc(F)c(F)c3F)c2)CC1,-3.3,-4,-2%,1.9,3,-6,4.9
COc1cccc(NC(=O)CN(C)C(=O)CSCc2nc3scc(-c4cccs4)c3c(=O)[nH]2)c1,0.1,5,.,4.0,6,-1,.

# Arranged by count of non-hydrogen atoms (smallest number first): seven of the compounds above.
SMILES,HNF4A DNA FP,Beta2AR agonist,Vif TR-FRET,LANA-H2B inh,ALR inh,Calb FLC,RanGTP-Impb inh
O=c1[nH]c2c(c(=O)n1Cc1ccccc1)CCC2,1.2,-17,-2%,2.6,.,-7,2.8
CC(C)C1CC(C(F)(F)F)n2nc(C(=O)O)cc2N1 (centres undefined),5.2,-1,7%,-0.9,2,15,?
Cc1ccc(NC(=S)NC2CCSc3ccccc32)cc1C (centres undefined),4.4,3,6%,-0.4,4,-3,-2.9
Cc1cc(C(F)(F)F)nn1-c1nc(-c2ccco2)cc(C(F)(F)F)n1,0.1,-7,-2%,.,.,-11,-3.4
COc1cccc(CNC(=O)c2cc(S(=O)(=O)N3CCCCC3)c[nH]2)c1,2.9,-4,.,2.1,-5,-6,2.0
CC(=O)Nc1ccc(S(=O)(=O)N2CCC(NC(=O)c3ccco3)CC2)cc1,-3.3,-7,12%,-2.3,.,-9,?
CC1(OC(=O)C2CCCC2)C(=O)C=C2C=C(c3ccsc3)N(CC3CC3)C=C2C1=O (centres undefined),-5.2,-6,.,-6.6,.,29,-3.6

# (more compounds)
SMILES,HNF4A DNA FP,Beta2AR agonist,Vif TR-FRET,LANA-H2B inh,ALR inh,Calb FLC,RanGTP-Impb inh
CCOc1ccccc1N(CC(=O)NCC1CCCO1)C(=O)CNS(=O)(=O)c1ccccc1 (centres undefined),0.8,4,-6%,5.6,8,-5,1.1
CC1=C(C#N)C2C(/C1=N/O)C2(C)C (centres undefined),3.4,-5,7%,-1.7,-3,10,-1.0
O=C(COC(=O)/C=C/c1ccco1)NCCc1ccccc1,1.0,2,25%,-5.6,16,-13,-3.1
CCCCn1c2ccccc2c2cc(CC(N)=O)ccc21,-1.2,2,4%,3.3,-20,6,5.2
Cc1nn(C(=O)N(C)C)c(C)c1CN1C(=O)c2ccccc2C1=O,-4.1,-4,8%,-1.5,-2,-1,-0.6
CSc1nsc(SC)c1NC(=O)OCC1CCCO1 (centres undefined),0.1,3,0%,2.8,38,?,2.3
CC(C)CN1C(=O)CC(Sc2ccccc2C(=O)O)C1=O (centres undefined),5.0,13,-1%,7.3,3,9,-3.0
O=C(CN1C(=O)NC2(CCCC2)C1=O)NNC(=O)c1ccc(Br)cc1,3.7,2,.,2.2,23,4,4.9
COc1ccc(CN(C)C2c3ccccc3-c3ccccc32)cc1,0.2,-8,.,-1.5,-12,2,0.5
Cc1ccc(S(=O)(=O)/C(C#N)=C/c2c(N3CCC(C(N)=O)CC3)nc3ccccn3c2=O)cc1,1.1,-3,4%,-4.7,-4,-2,34*
COc1ccc(C/C(C)=N/NC(=S)Nc2ccccc2F)cc1,-3.6,2,7%,2.4,34,-14,3.9
COc1ccc(C)cc1-n1nnnc1SC(C)C(=O)NC1CCCC1 (centres undefined),-2.8,0,.,-3.6,.,.,.

# With a hit mark in ALR inh (from the list above):
Structure | HNF4A DNA FP | Beta2AR agonist | Vif TR-FRET | LANA-H2B inh | ALR inh | RanGTP-Impb inh
COc1ccc(-c2nc(CS(=O)CC(=O)NCc3ccc(Cl)cc3)c(C)o2)cc1 (centres undefined) | -3.3 | 7 | 17% | 7.9 | 99* | -1.0
COc1cc(/C=N/Nc2ccc(F)cc2F)cc(OC)c1O | 2.7 | 2 | 32% | -4.3 | 99* | -0.8

# New compounds follow.
SMILES,HNF4A DNA FP,Beta2AR agonist,Vif TR-FRET,LANA-H2B inh,ALR inh,Calb FLC,RanGTP-Impb inh
Cc1ccccc1-c1cccc([C@@H]2C[C@H]3[C@H](CON3C)CN2Cc2ccccc2)c1,-0.8,2,6%,.,.,.,.
O=C(O)CNC(=O)CC1S/C(=N/N=C/c2ccccc2O)NC1=O (centres undefined),-1.9,-3,.,-3.4,2,8,?
COc1ccc(Nc2ccc([N+](=O)[O-])c3nonc23)c(OC)c1,7.4,21,.,1.2,9,55,-4.6
Cc1ccc(S(=O)(=O)N2CCN(C(=O)c3ccc(S(=O)(=O)N4CCCC4)cc3)CC2)cc1,3.7,3,-1%,-7.1,-2,-2,-1.0
CC1=C(C(=O)N2CCCC(N3CCN(c4cccc(Cl)c4)CC3)C2)OCCO1 (centres undefined),1.7,11,.,3.9,?,2,1.6
COC(=O)C1=C(C(=O)OC)C(c2cc(Cl)ccc2O)c2sc(=O)[nH]c2S1 (centres undefined),13,12,18%,-0.6,20,14,4.0
COc1ccc(Cc2nnc(N/N=C/c3ccc(N(C)C)cc3)[nH]c2=O)cc1OC,-2.1,3,-2%,-4.0,99*,5,1.6
O=S(=O)(c1ccc(-c2ccon2)s1)N1CCN(CCN2CCOCC2)CC1,-2.3,-6,.,-2.1,5,-4,0.1
Cc1cc(C)c(C)c(OCC(=O)N2CCOCC2)c1,2.3,0,2%,0.3,2,-6,0.3
Cc1cc(N=Cc2c(O)n(-c3cccc(Cl)c3)c(=O)c3ccccc23)no1,10.0,-12,4%,-9.3,2,2,?
Cc1ccc(N2C(=O)N(CC(=O)Nc3ccc(C)cc3C)C(=O)C2C)cc1 (centres undefined),-3.7,8,.,-4.6,4,-8,2.0
